Fluorescein fluor: compound autofluorescence in fluorescein spectral region; Compound autofluorescence, 480/540 nm, fluorescein-equivalent; hits give high values; max fluorescein-equivalent concentration, M; actives 0.91% (n = 59,000); AID 593; in the data active = max fluorescein-equivalent concentration above about 10 nM; inconclusive = between about 1.1 nM and that limit
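Normalized response (dye-equivalent concentration) derives from comparing each well's 540 nm emission, under 480 nm excitation, with plate-resident fluorescein standards. Compounds were held in 100 mM Tris, pH 8.0, for 15 min at room temperature.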
Casp1 inh: allosteric or competitive inhibitors of human caspase-1. AID 900. actives 0.03% (n = 75,000). Potency, µM (series often up to 57.5 µM), inactives show top-dose activity change, negative = inhibition, actives largely listed as inhibitors. Caspase-1 enzyme, Ac-WEHD-AFC fluorogenic rate;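 also: potency is read from the fitted curve at half-maximal effect; plate controls were vehicle for no effect and no substrate for full effect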
Target sequence (P29466 120-297 limits assumed): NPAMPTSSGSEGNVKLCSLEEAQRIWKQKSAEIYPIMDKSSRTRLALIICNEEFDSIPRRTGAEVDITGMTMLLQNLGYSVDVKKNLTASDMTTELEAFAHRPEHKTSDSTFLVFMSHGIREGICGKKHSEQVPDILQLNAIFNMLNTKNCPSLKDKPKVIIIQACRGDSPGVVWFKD
Target sequence (P29466 317-404 limits assumed): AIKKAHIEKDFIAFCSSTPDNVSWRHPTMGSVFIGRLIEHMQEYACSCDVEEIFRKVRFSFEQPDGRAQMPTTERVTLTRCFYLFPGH
ERK AVP block: vasopressin-driven ERK pathway inhibition. HEK293-V1b, vasopressin-stimulated pERK AlphaScreen. Potency, µM (doses to about 57.5 µM), inactives show at the highest dose activity, negative = inhibition, actives largely listed as inhibitors. actives 0.99% (n = 72,000); also: potency is read from the fitted curve at half-maximal effect; % is scaled to controls: 0 for no effect and ±100 for the full control effect; nearly all actives have a fitted effect of over 55% in size
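Overnight-seeded V1b-HEK293 cells in 1% FBS got compound, then vasopressin (25 nM final, 5 min, 37C), then lysis buffer. AlphaScreen detection of phospho-ERK; activity normalized to basal and full-stimulation controls.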
HEK293 cAMP cs: parental HEK293 cAMP activation (counter-screen); parental HEK293 CNG cAMP sensor, membrane potential fluorescence; actives 2.5% (n = 73,000); Potency, µM (top dose mostly 57.1 µM), for the others: at the top dose activation, hits mostly activators; also: potency is read from the fitted curve at half-maximal effect; % of control where 0% means no effect; nearly all actives have a fitted effect of over 55% in size
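Counterscreen for endogenous-receptor signalling: CNG-channel HEK 293 cells report cAMP rise by membrane depolarization. After 60 min dye equilibration with 100 uM RO 20-1724, compounds incubated 30 min before bottom-read fluorescence at 590 nm.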
USP2a inhib: USP2a (human) protease inhibition. O75604. USP2a enzymatic assay, qHTS inhibition. Potency, µM (titrated, usually from 38.3 µM), inactives show at the highest dose activity change, negative = inhibition, most hits filed as inhibitors. actives 0.1% (n = 60,000). AID 927;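 also: potency is read from the fitted curve at half-maximal effect; nearly all actives have a fitted effect of over 60% in size; plate controls were DMSO for no effect and NEM full inhibition control for full effect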
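USP2 core (20 nM final) was preincubated with compound for 30 min at RT in 20 mM Tris-HCl pH 8.0, 2 mM CaCl2, 2 mM beta-mercaptoethanol; Ub-PLA2 (20 nM) plus NBD C6-HPC (20 uM) then added, fluorescence read after 2.5 h.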
Texas Red fluor: compound fluoresces in the Texas Red spectral region | actives 0.06% (n = 59,000) | max dye-equivalent concentration, M | Compound fluorescence, Texas Red channel, 547/618 nm; hits give high values; in the data active = max dye-equivalent concentration above about 10 nM; inconclusive = between about 1.1 nM and that limit
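qHTS profiling of intrinsic compound fluorescence; 100 mM Tris pH 8.0; 15 min RT; ex 547 / em 618 nm; response expressed as Texas Red dye-equivalent concentration from six-point plate standard.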
Tau filament bind: binds recombinant human tau filaments | P10636 | recombinant tau filaments, thioflavin S fluorescence, 15 h; filaments grown with octadecylsulfate alongside compound | Potency, µM (titrated, usually from 57.1 µM), inactives show top-dose activity change, negative = inhibition | actives 2% (n = 71,000);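 also: potency is read from the fitted curve at half-maximal effect; % is scaled to controls: 0 for no effect and ±100 for the full control effect; actives lower thioflavin S fluorescence by blocking filaments or displacing dye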
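His-tagged recombinant human tau (exons 2, 3 and 10 included), 1 uM, was induced to fibrillize by 30 uM sodium octadecylsulfate with compound present. After 15 h at 37 C, thioflavine S fluorescence (ex 450, em 510 nm) was read.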
Rhodamine autofl: compound autofluorescence in rhodamine spectral region; max dye-equivalent concentration, M; actives 0.05% (n = 59,000); Rhodamine-region fluorescence, 547/598 nm, Tris buffer; hits give high values; in the data active = max dye-equivalent concentration above about 11 nM; inconclusive = between about 1.1 nM and that limit
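Steps: pin-transfer compounds into pH 8.0 Tris (100 mM), hold 15 min at room temperature, image with a 547/598 nm filter pair, and convert intensities to rhodamine-equivalent concentration using a six-point on-plate rhodamine series.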
Casp7 inh: caspase-7 (human) inhibition, allosteric or competitive; P55210; recombinant caspase-7, Ac-DEVD-AFC fluorescence rate; Potency, µM (series often up to 57.5 µM), for inactives: at the top dose activity change, negative = inhibition, usual class: inhibitors; actives 0.02% (n = 75,000); AID 889; active = well fitted inhibition curve with a large enough effect in the main read-out, with a control signal flat, not every such curve was filed as active; inconclusive = small, poorly fitted or top-dose-only effect, or a change in a side signal; also: potency is read from the fitted curve at half-maximal effect; % of control where 0% means no effect
Target sequence (P55210 24-198 limits assumed): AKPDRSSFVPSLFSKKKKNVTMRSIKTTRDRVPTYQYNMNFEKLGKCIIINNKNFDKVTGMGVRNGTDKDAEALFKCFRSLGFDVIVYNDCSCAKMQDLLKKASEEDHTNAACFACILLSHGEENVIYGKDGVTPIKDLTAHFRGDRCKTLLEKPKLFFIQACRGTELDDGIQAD
Target sequence (P55210 207-303 limits assumed): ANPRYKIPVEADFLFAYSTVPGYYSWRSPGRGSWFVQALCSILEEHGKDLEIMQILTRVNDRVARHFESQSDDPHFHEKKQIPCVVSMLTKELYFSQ
Luciferase inh: inhibitors of firefly luciferase; P08659; purified firefly luciferase, luminescence, 8 min; Potency, µM (doses to about 57.1 µM), for inactives: top-dose activity change, negative = inhibition, usual class: inhibitors; actives 2.2% (n = 72,000); also: potency is read from the fitted curve at half-maximal effect; % is scaled to controls: 0 for no effect and ±100 for the full control effect; nearly all actives have a fitted effect of over 40% in size
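Firefly luciferase (PKLight detection mix) with 10 uM ATP in pH 7.2 imidazole buffer (KCl, MgCl2, Tween 20, BSA). Compounds tested across a concentration series (qHTS). Luminescence read after 8 min at ambient temperature.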
Starred values were filed as active, the others as inactive; i = inactive; u = inconclusive; x = no result given; [ ] = dose if it differs, or a comment. Unless noted, calls follow the shape of the dose curve; as a rule, active = well fitted curve in the direction sought with a large enough effect; inconclusive = small, poorly fitted or top-dose-only effect, or another doubt; inactive = no such curve, though single readings can be large; an effect the other way counts as inactive or inconclusive.

Keys – A = Fluorescein fluor; B = Casp1 inh; C = ERK AVP block; D = HEK293 cAMP cs; E = USP2a inhib; F = Texas Red fluor; G = Tau filament bind; H = Rhodamine autofl; I = Casp7 inh; J = Luciferase inh
[1] COC(=O)c1cc2occc2n1CC(=O)Nc1ccc(OC)c(OC)c1
  A: i | B: -0.9% | C: -4.4% | D: 7.9% | E: 2.6% | F: i | G: 9.8% | H: i | I: 0.7% | J: 0.7%
[2] CC(C)CN(CCNC(=O)CC1Oc2ccccc2NC1=O)CC(C)C (configuration not stated)
  A: x | B: 1.6% | C: 2.6% | D: 16.7% | E: x | F: x | G: -10.5% | H: x | I: 1.4% | J: 4.5%
[3] COc1ccc(-n2c(SCC(=O)Nc3cc(C)on3)nc3c(c2=O)SCC3)cc1
  A: x | B: 1.8% | C: x | D: 5.6% | E: x | F: x | G: -15.5% | H: x | I: 2.0% | J: -2.9%
[4] COC(=O)CSc1nc(C)cc(Oc2ccccc2)n1
  A: x | B: 0.9% | C: 2.7% | D: 8.2% | E: x | F: x | G: -8.5% | H: x | I: -2.4% | J: 2.3%
[5] O=C(CC1Oc2ccccc2NC1=O)NCc1ccc(Cl)cc1 (configuration not stated)
  A: x | B: -0.5% | C: 12.5% | D: 3.3% | E: x | F: x | G: 81.5% | H: x | I: -1.4% | J: -0.9%
[6] Cc1cc(C(F)(F)F)nc(SCc2ccc(C(=O)O)o2)n1
  A: i | B: -5.4% | C: -3.3% | D: 9.9% | E: -1.5% | F: i | G: 4.0% | H: i | I: -7.1% | J: 1.4%
[7] COc1ccc(Nc2ncc3c(n2)CC(c2ccc(OC)cc2)CC3=O)cc1 (configuration not stated)
  A: i | B: u | C: -20.2% | D: -8.4% | E: 30.0%[activator] | F: i | G: 42.9% | H: i | I: u | J: -11.0%
[8] Cc1cn(-c2ccc(Br)cc2)[nH]c1=O
  A: u | B: 0.4% | C: 7.7% | D: -2.8% | E: 3.4% | F: u | G: 9.5% | H: i | I: 0.1% | J: -4.3%
[9] CCc1ccc(NC(=O)c2cc(C(C)C)on2)cc1
  A: i | B: -0.2% | C: 13.8% | D: 9.0% | E: 1.6% | F: i | G: -4.1% | H: i | I: -2.7% | J: 12.6µM*
[10] CCN(C(=O)CN1CCN(c2ccc(O)cc2)CC1)c1c(N)n(Cc2ccccc2)c(=O)[nH]c1=O
  A: u | B: -6.1% | C: -3.4% | D: 1.5% | E: 12.1% | F: i | G: -11.8% | H: i | I: -11.9% | J: -7.1%
[11] CCCCN(C)CCNC(=O)c1c[nH]c2ccc(S(=O)(=O)N(CC)CC)cc2c1=O
  A: i | B: -2.3% | C: -19.4% | D: 1.2% | E: 30.8%[activator] | F: i | G: 8.0% | H: i | I: -0.7% | J: -0.1%
[12] c1ccc(CCc2nn3c(C4COc5ccccc5O4)nnc3s2)cc1 (configuration not stated)
  A: i | B: -1.4% | C: -22.9% | D: 15.8µM* | E: 33.2%[activator] | F: u | G: -11.4% | H: i | I: -1.4% | J: -2.2%
[13] CCOc1ccc(-n2c(-c3ccco3)n[nH]c2=S)cc1
  A: i | B: -2.6% | C: -10.8% | D: -0.5% | E: -0.4% | F: u | G: -1.8% | H: i | I: -0.7% | J: -6.7%
[14] COc1ccc(OC)c(S(=O)(=O)Nc2cccc(C(C)=O)c2)c1
  A: i | B: -0.9% | C: -14.6% | D: 1.7% | E: 4.9% | F: i | G: 13.6% | H: i | I: -0.6% | J: -0.8%
[15] Cn1c(N)c(C(=O)NCc2ccccc2)sc1=S
  A: u | B: -6.5% | C: -2.5% | D: 4.8% | E: 11.9% | F: i | G: 19.4% | H: i | I: -4.1% | J: -1.0%
[16] COCCCn1c(SCC(=O)N2CC(=O)Nc3ccccc32)nnc1-c1ccoc1C
  A: u | B: -2.1% | C: u | D: 12.9% | E: -4.3% | F: i | G: 35.1% | H: i | I: -0.7% | J: 1.3%
[17] CNC(=O)c1c[nH]n2c(=O)c(Cc3ccccc3F)c(C)nc12
  A: x | B: -2.5% | C: -17.0% | D: -1.4% | E: x | F: x | G: 7.0% | H: x | I: -0.6% | J: -6.5%
[18] Cc1ccc(-c2nc(NCCN3CCOCC3)c3ccccc3n2)cc1
  A: x | B: -0.3% | C: -19.7% | D: -14.6%[11.4 µM] | E: 30.6%[activator][7.66 µM] | F: x | G: -65.3%[11.4 µM] | H: x | I: -2.1% | J: -6.1%
[19] COc1cc(C2C(C(=O)c3ccc(C)o3)=C(O)C(=O)N2c2cc(C)on2)cc(Br)c1O (configuration not stated)
  A: u | B: -4.6% | C: -26.1% | D: 14.9% | E: 35.4%[activator] | F: i | G: -13.5% | H: i | I: -4.4% | J: 2.5%
[20] O=C(Nc1ccc2nc(-c3ccccc3)oc2c1)c1ccco1
  A: i | B: -2.7% | C: 15.0% | D: 5.5% | E: 17.5% | F: i | G: 69.0% | H: i | I: -1.0% | J: -23.6%

Among those listed so far, nine have a carbonyl joined to an NH by a bond outside any ring.
Keys – A = Fluorescein fluor; B = Casp1 inh; C = ERK AVP block; D = HEK293 cAMP cs; E = USP2a inhib; F = Texas Red fluor; G = Tau filament bind; H = Rhodamine autofl; I = Casp7 inh; J = Luciferase inh
[1] COC(=O)c1cc2occc2n1CC(=O)Nc1ccc(OC)c(OC)c1
  A: i | B: -0.9% | C: -4.4% | D: 7.9% | E: 2.6% | F: i | G: 9.8% | H: i | I: 0.7% | J: 0.7%
[2] CC(C)CN(CCNC(=O)CC1Oc2ccccc2NC1=O)CC(C)C (configuration not stated)
  A: x | B: 1.6% | C: 2.6% | D: 16.7% | E: x | F: x | G: -10.5% | H: x | I: 1.4% | J: 4.5%
[3] COc1ccc(-n2c(SCC(=O)Nc3cc(C)on3)nc3c(c2=O)SCC3)cc1
  A: x | B: 1.8% | C: x | D: 5.6% | E: x | F: x | G: -15.5% | H: x | I: 2.0% | J: -2.9%
[5] O=C(CC1Oc2ccccc2NC1=O)NCc1ccc(Cl)cc1 (configuration not stated)
  A: x | B: -0.5% | C: 12.5% | D: 3.3% | E: x | F: x | G: 81.5% | H: x | I: -1.4% | J: -0.9%
[9] CCc1ccc(NC(=O)c2cc(C(C)C)on2)cc1
  A: i | B: -0.2% | C: 13.8% | D: 9.0% | E: 1.6% | F: i | G: -4.1% | H: i | I: -2.7% | J: 12.6µM*
[11] CCCCN(C)CCNC(=O)c1c[nH]c2ccc(S(=O)(=O)N(CC)CC)cc2c1=O
  A: i | B: -2.3% | C: -19.4% | D: 1.2% | E: 30.8%[activator] | F: i | G: 8.0% | H: i | I: -0.7% | J: -0.1%
[15] Cn1c(N)c(C(=O)NCc2ccccc2)sc1=S
  A: u | B: -6.5% | C: -2.5% | D: 4.8% | E: 11.9% | F: i | G: 19.4% | H: i | I: -4.1% | J: -1.0%
[17] CNC(=O)c1c[nH]n2c(=O)c(Cc3ccccc3F)c(C)nc12
  A: x | B: -2.5% | C: -17.0% | D: -1.4% | E: x | F: x | G: 7.0% | H: x | I: -0.6% | J: -6.5%
[20] O=C(Nc1ccc2nc(-c3ccccc3)oc2c1)c1ccco1
  A: i | B: -2.7% | C: 15.0% | D: 5.5% | E: 17.5% | F: i | G: 69.0% | H: i | I: -1.0% | J: -23.6%

Given field by field: 2 of the compounds above.
[17] CNC(=O)c1c[nH]n2c(=O)c(Cc3ccccc3F)c(C)nc12
  Fluorescein fluor: x	Casp1 inh: -2.5%	ERK AVP block: -17.0%	HEK293 cAMP cs: -1.4%	USP2a inhib: x	Texas Red fluor: x	Tau filament bind: 7.0%	Rhodamine autofl: x	Casp7 inh: -0.6%	Luciferase inh: -6.5%
[18] Cc1ccc(-c2nc(NCCN3CCOCC3)c3ccccc3n2)cc1
  Fluorescein fluor: x	Casp1 inh: -0.3%	ERK AVP block: -19.7%	HEK293 cAMP cs: -14.6%[11.4 µM]	USP2a inhib: 30.6%[activator][7.66 µM]	Texas Red fluor: x	Tau filament bind: -65.3%[11.4 µM]	Rhodamine autofl: x	Casp7 inh: -2.1%	Luciferase inh: -6.1%

These rows are one share of the data, so the mix of outcomes need not match the whole.
